Bioassay records from PubChem.
GIRK2 activ: opens human GIRK2 potassium channels. AID 1259325. HEK293-GIRK2 thallium flux, Thallos fluorescence. P48051. calls only for hits at 25 µM. 63,000 compounds, 0.05% hits;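 active means among the strongest 0.2% of first-round signals and kept after retests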;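 further: first round at about 10 µM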
Target sequence (P48051 whole entry, looked up): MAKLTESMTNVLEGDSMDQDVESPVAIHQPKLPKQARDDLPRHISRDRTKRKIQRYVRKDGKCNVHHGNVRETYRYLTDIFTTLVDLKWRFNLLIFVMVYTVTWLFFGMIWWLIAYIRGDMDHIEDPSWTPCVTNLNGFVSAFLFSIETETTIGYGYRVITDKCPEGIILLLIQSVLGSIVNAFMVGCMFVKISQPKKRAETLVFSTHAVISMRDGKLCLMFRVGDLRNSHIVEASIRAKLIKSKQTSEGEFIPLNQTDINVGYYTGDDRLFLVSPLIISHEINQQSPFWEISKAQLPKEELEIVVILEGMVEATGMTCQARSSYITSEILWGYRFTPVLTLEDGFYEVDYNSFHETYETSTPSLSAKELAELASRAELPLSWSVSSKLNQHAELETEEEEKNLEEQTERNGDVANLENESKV
Calls only.

Results for CC(C)NC(=O)CSc1nnc(N2CCN(C(=O)c3ccc(Cl)cc3Cl)CC2)s1 ?
GIRK2 activ: inactive

Results for N#Cc1nc(/C=C/c2ccccc2)oc1N1CCN(C(=O)c2ccco2)CC1 ?
GIRK2 activ: inactive

How did Cc1cc(SCC(=O)Nc2ccccc2[N+](=O)[O-])n2ncc(-c3ccccc3)c2n1 do in these assays?
GIRK2 activ: inactive

How did COc1cc(OC)c(NC(=O)NC2(c3nc(C)no3)CCCCC2)cc1Cl do in these assays?
GIRK2 activ: inactive

How did Cc1sc2ncnc(SCC(=O)Nc3nc(-c4ccccc4)ns3)c2c1C do in these assays?
GIRK2 activ: inactive

Results for CC(C)N1CCc2c(sc(NC(=O)c3cccs3)c2-c2nc3ccccc3s2)C1 ?
GIRK2 activ: inactive

What do the screens show for `CC(Cc1ccco1)NC(=O)c1ccccn1` (centres undefined)?
GIRK2 activ: inactive

How did O=C(CSc1ccc(F)cc1)NCCC1CCCCN1S(=O)(=O)c1cccs1 (centres undefined) do in these assays?
GIRK2 activ: inactive

How did COc1ccc(CC(C)(O)CNC(=O)c2c(F)cccc2F)cc1 (centres undefined) do in these assays?
GIRK2 activ: inactive

How did Cc1nc(-c2cccc(NC(=O)C3(c4cccs4)CCCC3)c2)cs1 do in these assays?
GIRK2 activ: inactive

What do the screens show for `CCSc1ccccc1C(=O)NCc1sc(-c2ccccc2Cl)nc1C`?
GIRK2 activ: inactive

Results for Cc1cc(C(F)(F)F)nc(CCNC(=O)COc2ccccc2F)n1 ?
GIRK2 activ: inactive

How did C/C=C/Cn1c(=O)c2c(nc3n(Cc4ccco4)c(C)cn23)n(C)c1=O do in these assays?
GIRK2 activ: inactive

How did COc1cc(OC)c(NC(=O)CSc2ccc(S(=O)(=O)c3ccccc3)nn2)cc1Cl do in these assays?
GIRK2 activ: inactive

Results for CCNc1oc(-c2ccc(S(=O)(=O)N(CC)CC)cc2)nc1C#N ?
GIRK2 activ: inactive

How did O=C1CCC(C(=O)Nc2ccc(-c3ccn[nH]3)cc2)N1 (centres undefined) do in these assays?
GIRK2 activ: inactive

What do the screens show for `Cc1ccc2nc(NC(=O)C(C)Cn3nc(-c4ccco4)ccc3=O)sc2c1` (centres undefined)?
GIRK2 activ: inactive

What do the screens show for `COc1ccc(NC(=O)CSc2nc3c(oc4ccccc43)c(=O)n2Cc2ccco2)c(OC)c1`?
GIRK2 activ: inactive

How did COc1ccc(-c2ccc3c(N)c(C(=O)N4CCOCC4)sc3n2)cc1 do in these assays?
GIRK2 activ: inactive

How did CSc1cccc(N2C=C(C#N)S(=O)(=O)c3cc(F)ccc32)c1 do in these assays?
GIRK2 activ: inactive

How did Cc1csc(COc2ccc(C(=O)NCc3cccs3)cc2)n1 do in these assays?
GIRK2 activ: inactive

What do the screens show for `Cc1nn(C)c(C)c1S(=O)(=O)Nc1ccc(N2CCCCC2=O)cc1`?
GIRK2 activ: inactive

How did O=C(c1ccc(S(=O)(=O)N2CCCC2)cc1)N1CCN(c2ccc3nncn3n2)CC1 do in these assays?
GIRK2 activ: inactive

How did COc1ccc(NC(=O)Cn2nc(-n3nc(C)cc3C)ccc2=O)cc1Cl do in these assays?
GIRK2 activ: inactive

How did CCn1c(=O)c2c(nc3n(-c4ccccc4O)c(C)c(C)n23)n(C)c1=O do in these assays?
GIRK2 activ: inactive

How did CCOC(=O)CCn1cc(-c2nc(-c3ccc(OC)c(F)c3)no2)ccc1=O do in these assays?
GIRK2 activ: inactive

How did O=S(=O)(NCC(O)c1ccoc1)c1ccc(Br)s1 (centres undefined) do in these assays?
GIRK2 activ: inactive

How did CCC(=O)Nc1ccc2c(c1)c(=O)n(-c1ccccc1)n2CC(=O)Nc1cccc(OC)c1 do in these assays?
GIRK2 activ: inactive

Results for O=C(c1ccc(Br)o1)N1CCC(CSC2=NCCS2)CC1 ?
GIRK2 activ: inactive

Results for CC(C)c1ccc(NC(=O)Cn2cnc3c(sc4ccccc43)c2=O)cc1 ?
GIRK2 activ: inactive

How did Cc1cc(C)c(C)c(S(=O)(=O)NCC(=O)Nc2ccc3c(c2)OCCO3)c1C do in these assays?
GIRK2 activ: inactive

Results for Cn1ccnc1SCC1CCN(C(=O)NCc2cccs2)CC1 ?
GIRK2 activ: inactive

How did COC(=O)c1[nH]c(C)c(C(O)=C2C(=O)C(=O)N(Cc3cccnc3)C2c2cccnc2)c1C (centres undefined) do in these assays?
GIRK2 activ: inactive

How did CCOc1ccc(C(=O)NCCN2CCN(c3ccccc3)CC2)cc1OCC do in these assays?
GIRK2 activ: inactive

How did COc1ccc(-c2cc(N3CCC(C(=O)Nc4nc5c(s4)CCCC5)CC3)ncn2)cc1 do in these assays?
GIRK2 activ: inactive

What do the screens show for `O=C(Nc1nc(CN2CCc3ccccc3C2)cs1)c1ccc(N2C(=O)CCC2=O)cc1`?
GIRK2 activ: inactive

How did O=C(Nc1cccs1)N1CCCC(c2nnc(C(F)(F)F)o2)C1 (centres undefined) do in these assays?
GIRK2 activ: inactive

What do the screens show for `CCOC(=O)c1c(N)n(CCOC(=O)c2ccco2)c2nc3ccccc3nc12`?
GIRK2 activ: inactive

What do the screens show for `Cc1ccc(NC(=O)CSc2ncnc3nc(N4CCc5ccccc5C4)sc23)c(Cl)c1`?
GIRK2 activ: inactive

How did CCC(C)Nc1oc(-c2ccc(S(=O)(=O)N3CCOCC3)cc2)nc1C#N (centres undefined) do in these assays?
GIRK2 activ: inactive

How did Cc1cc(C(=O)NCCc2nc(-c3ccco3)cn2C)c(C)o1 do in these assays?
GIRK2 activ: inactive

How did CCc1ccccc1Nc1c(C(=O)N2CCCC2)cnc2nc(C)ccc12 do in these assays?
GIRK2 activ: inactive

What do the screens show for `CCc1nc2sc(C(c3ccc(C(F)(F)F)cc3)N3CCCC(C)C3)c(O)n2n1` (centres undefined)?
GIRK2 activ: inactive

What do the screens show for `O=C(CN1C(=O)COc2ccccc2C1=O)c1cccc([N+](=O)[O-])c1`?
GIRK2 activ: inactive

How did COc1ccc(CNC(=O)NCC#CCN(C(C)C)C(C)C)cc1 do in these assays?
GIRK2 activ: inactive

What do the screens show for `O=C(c1ccc2c(c1)OCO2)N1CCOC2(CCOCC2)C1`?
GIRK2 activ: inactive

What do the screens show for `CC(O)(CCc1ccccc1)CNC(=O)Cc1cccc2ccccc12` (centres undefined)?
GIRK2 activ: inactive

How did Cn1c(=O)c2c(nc(N3CCC(C(N)=O)CC3)n2CCCc2ccccc2)n(C)c1=O do in these assays?
GIRK2 activ: inactive

What do the screens show for `O=C(c1cc2ccccc2oc1=O)N1CCC(CSC2=NCCS2)CC1`?
GIRK2 activ: inactive

How did Cc1ccnc(Nc2ccc(N3CCN(S(=O)(=O)c4ccc(Cl)cc4)CC3)nn2)c1 do in these assays?
GIRK2 activ: inactive

Results for CCc1ccc(N2CCn3c2nc2c3c(=O)n(C)c(=O)n2C)cc1 ?
GIRK2 activ: inactive

Results for COc1ccc(S(=O)(=O)N2CCOC2CNC(=O)C(=O)NCCCN2CCOCC2)cc1C (centres undefined) ?
GIRK2 activ: inactive

How did COc1cc(NC(=O)Nc2cccc(OC)c2OC)c2ncccc2c1 do in these assays?
GIRK2 activ: inactive

What do the screens show for `COc1ccc(-c2csc(-c3nnn(-c4cccc(F)c4)c3N)n2)cc1`?
GIRK2 activ: inactive

What do the screens show for `CC(O)Cn1c(NCCN(C)C)nc2c1c(=O)n(C)c(=O)n2C` (centres undefined)?
GIRK2 activ: inactive

How did COc1ccc(-c2nc(C)c(-c3cc(=O)[nH]c(SCC(=O)Nc4ccccc4C)n3)s2)cc1 do in these assays?
GIRK2 activ: inactive

How did O=C(NCc1cccnc1)c1ccc(S(=O)(=O)NCCc2ccccc2)o1 do in these assays?
GIRK2 activ: inactive

Results for Cc1c(-c2nc(-c3ccc4c(c3)OCO4)no2)oc2ccc(S(=O)(=O)N3CCSCC3)cc12 ?
GIRK2 activ: inactive

How did O=C(Nc1nc(-c2ccncc2)cs1)C1CCCN(S(=O)(=O)c2ccc(Cl)s2)C1 (centres undefined) do in these assays?
GIRK2 activ: inactive

Results for Cn1cnc(S(=O)(=O)NCC2(c3cccs3)CCCC2)c1 ?
GIRK2 activ: inactive

No new results follow: 14 of the compounds above.
What do the screens show for `CCc1nc2sc(C(c3ccc(C(F)(F)F)cc3)N3CCCC(C)C3)c(O)n2n1` (centres undefined)?
GIRK2 activ: inactive

What do the screens show for `O=C(CN1C(=O)COc2ccccc2C1=O)c1cccc([N+](=O)[O-])c1`?
GIRK2 activ: inactive

How did COc1ccc(CNC(=O)NCC#CCN(C(C)C)C(C)C)cc1 do in these assays?
GIRK2 activ: inactive

What do the screens show for `O=C(c1ccc2c(c1)OCO2)N1CCOC2(CCOCC2)C1`?
GIRK2 activ: inactive

What do the screens show for `CC(O)(CCc1ccccc1)CNC(=O)Cc1cccc2ccccc12` (centres undefined)?
GIRK2 activ: inactive

How did Cn1c(=O)c2c(nc(N3CCC(C(N)=O)CC3)n2CCCc2ccccc2)n(C)c1=O do in these assays?
GIRK2 activ: inactive

What do the screens show for `O=C(c1cc2ccccc2oc1=O)N1CCC(CSC2=NCCS2)CC1`?
GIRK2 activ: inactive

How did Cc1ccnc(Nc2ccc(N3CCN(S(=O)(=O)c4ccc(Cl)cc4)CC3)nn2)c1 do in these assays?
GIRK2 activ: inactive

Results for CCc1ccc(N2CCn3c2nc2c3c(=O)n(C)c(=O)n2C)cc1 ?
GIRK2 activ: inactive

Results for COc1ccc(S(=O)(=O)N2CCOC2CNC(=O)C(=O)NCCCN2CCOCC2)cc1C (centres undefined) ?
GIRK2 activ: inactive

How did COc1cc(NC(=O)Nc2cccc(OC)c2OC)c2ncccc2c1 do in these assays?
GIRK2 activ: inactive

What do the screens show for `COc1ccc(-c2csc(-c3nnn(-c4cccc(F)c4)c3N)n2)cc1`?
GIRK2 activ: inactive

What do the screens show for `CC(O)Cn1c(NCCN(C)C)nc2c1c(=O)n(C)c(=O)n2C` (centres undefined)?
GIRK2 activ: inactive

How did COc1ccc(-c2nc(C)c(-c3cc(=O)[nH]c(SCC(=O)Nc4ccccc4C)n3)s2)cc1 do in these assays?
GIRK2 activ: inactive

(more compounds)
Results for COC(=O)c1ccc(C(=O)NCc2cnn3ccccc23)cc1 ?
GIRK2 activ: inactive

How did Cn1nc(CNC(=O)COc2cccc3c2OC(C)(C)C3)cc1-c1ccncc1 do in these assays?
GIRK2 activ: inactive

How did CC(O)CSc1nc2c(c(=O)n(C)c(=O)n2C)n1Cc1ccc(F)cc1 (centres undefined) do in these assays?
GIRK2 activ: inactive

Results for Cc1cc(CNC(=O)c2cc(-c3ccco3)on2)c(C)o1 ?
GIRK2 activ: inactive

Results for Cc1cc(C)n(-c2nc(CCNS(=O)(=O)/C=C/c3ccccc3)cs2)n1 ?
GIRK2 activ: inactive

Results for CC(O)(CNC(=O)c1ccc(Cl)c(Cl)c1)c1ccco1 (centres undefined) ?
GIRK2 activ: inactive

What do the screens show for `Cc1cn2c3c(=O)n(Cc4ccc(Cl)cc4)c(=O)n(C)c3nc2n1Cc1ccco1`?
GIRK2 activ: inactive

Results for O=C(CSc1nnc2scc(-c3ccc(Cl)cc3)n12)c1ccc2c(c1)OCO2 ?
GIRK2 activ: inactive

What do the screens show for `CSc1ccccc1NC(=O)C1COCC(=O)N1Cc1cccs1` (centres undefined)?
GIRK2 activ: inactive

What do the screens show for `O=C(Nc1ccc2c(c1)OCO2)N1CCC(Oc2cnccn2)CC1`?
GIRK2 activ: inactive

Results for O=C(Nc1ccc(OC(F)(F)F)cc1)C1CCCN(c2ccc(-c3ccco3)nn2)C1 (centres undefined) ?
GIRK2 activ: inactive

Results for COc1ccccc1NC(=O)Nc1ccc(CC(=O)NCc2cccs2)cc1 ?
GIRK2 activ: inactive

What do the screens show for `COCCN1CCC(NC(=O)Cc2ccc(OC)c(OC)c2)CC1`?
GIRK2 activ: inactive

What do the screens show for `COc1ccc(Nc2nc3c(S(=O)(=O)c4ccc(C)cc4)nnn3c3ccccc23)cc1OC`?
GIRK2 activ: inactive

Results for COC1CCN(S(=O)(=O)c2ccc(Br)s2)CC1 ?
GIRK2 activ: inactive

What do the screens show for `CN(C)CCCN(C)c1ccc(C(F)(F)F)cc1N`?
GIRK2 activ: inactive

How did COc1ccc(-c2ccc(C(=O)Nc3ccccc3Cl)o2)c([N+](=O)[O-])c1 do in these assays?
GIRK2 activ: inactive

How did CCCNC(=O)CSc1nnc2n(CCC(=O)NC(C)CC)c(=O)c3ccccc3n12 (centres undefined) do in these assays?
GIRK2 activ: inactive

How did COC(=O)c1cccc(Nc2cc(C(=O)N3CCSCC3)nc3c(OC)cccc23)c1 do in these assays?
GIRK2 activ: inactive

Results for Cc1sc2ccsc2[n+]1CC(=O)O ?
GIRK2 activ: inactive

How did O=C(CSc1nnc(Cn2ccc(=O)[nH]c2=O)o1)c1ccc(F)cc1 do in these assays?
GIRK2 activ: inactive

How did Cn1nnn(-c2ccc(NC(=O)c3cc(C(F)(F)F)cc(C(F)(F)F)c3)cc2)c1=O do in these assays?
GIRK2 activ: inactive

Results for CC(C)(C)c1cc(C(F)(F)F)c(C#N)c(SCCC(=O)Nc2nccs2)n1 ?
GIRK2 activ: inactive

How did CC(C)NCC(O)COc1cccc2ccccc12 (centres undefined) do in these assays?
GIRK2 activ: inactive

What do the screens show for `O=C(NCC1(O)CCc2ccccc21)C(=O)Nc1ccccc1Cl` (centres undefined)?
GIRK2 activ: inactive

How did COc1ccccc1C1c2c(oc3cc(C)c(Cl)cc3c2=O)C(=O)N1c1nccs1 (centres undefined) do in these assays?
GIRK2 activ: inactive

How did Cc1cccc(Cn2c(=O)c3nscc3n(Cc3c(C)noc3C)c2=O)c1 do in these assays?
GIRK2 activ: inactive

What do the screens show for `N#Cc1ccc(Cl)cc1NC(=O)c1cnn2c1OCCC2`?
GIRK2 activ: inactive

How did Cc1cccc(-n2ncc3c(=O)n(CC(=O)N4CCCCC4)cnc32)c1C do in these assays?
GIRK2 activ: inactive

How did O=C(c1cc2ccccc2[nH]1)N1CCC(Oc2ccc(C(F)(F)F)cn2)CC1 do in these assays?
GIRK2 activ: inactive

How did Cc1cccc(NC(=O)Cn2cnc3sc(-c4nc(-c5cccc(Cl)c5)no4)c(C)c3c2=O)c1 do in these assays?
GIRK2 activ: inactive

How did NS(=O)(=O)c1cc2c(cc1Cl)NCNS2(=O)=O do in these assays?
GIRK2 activ: inactive

How did CC(C)n1c(SCC(=O)NN)nc2c1c(=O)[nH]c(=O)n2C do in these assays?
GIRK2 activ: inactive

Results for CCN1CCC2(CC1)Oc1ccc(Br)cc1C1CC(c3cccs3)=NN12 (centres undefined) ?
GIRK2 activ: inactive

The list is partial. The share of hits here may be higher or lower than overall.
